Screening results (PubChem)
Cruzain inh Det: qHTS Assay for Promiscuous and Specific Inhibitors of Cruzain (with detergent); Cruzipain (Trypanosoma cruzi), P25779; Potency, µM, for the others: max response, negative = inhibition, hits mostly inhibitors; 200,000 compounds, 0.43% hits; purified cruzain, Z-FR-AMC fluorescence, 0.01% Triton; active = well fitted curve in the direction sought with a large enough effect; inconclusive = small, poorly fitted or top-dose-only effect, or another doubt; inactive = no such curve, though single readings can be large; an effect the other way counts as inactive or inconclusive;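 also: plate controls were neutral wells for no effect and buffer without enzyme for full effect; nearly all actives have a fitted effect of over 40% in size; top concentration of the series not given in the record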
Target sequence (P25779 123-467 limits assumed): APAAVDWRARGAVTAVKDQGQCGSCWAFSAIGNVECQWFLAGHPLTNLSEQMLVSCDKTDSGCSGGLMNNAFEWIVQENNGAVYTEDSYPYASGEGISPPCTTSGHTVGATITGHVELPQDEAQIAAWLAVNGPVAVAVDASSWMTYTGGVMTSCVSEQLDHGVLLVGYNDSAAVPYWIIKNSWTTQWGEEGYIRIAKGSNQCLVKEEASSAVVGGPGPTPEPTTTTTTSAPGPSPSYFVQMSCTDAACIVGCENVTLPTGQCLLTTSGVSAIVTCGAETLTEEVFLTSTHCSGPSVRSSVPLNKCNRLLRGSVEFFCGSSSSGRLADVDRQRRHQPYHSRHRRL
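15 min RT preincubation of 1.5 nM cruzain with compound, then 2 uM Z-FR-AMC added; kinetic AMC fluorescence, 60 s delta. Triton X-100 0.01%, pH 5.5.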
RE007 growth inh: qHTS Assay for Inhibitors of the HIV-1 protein Vpr | S. pombe RE007 Vpr strain, BacTiter-Glo ATP luminescence, 24 h; control for the full effect not named in the record | Potency, µM (top dose mostly 92.2 µM), without a hit: top-dose activity change, negative = less growth | 360,000 compounds, 0.21% hits | AID 651644, 2012; active = well fitted falling curve with a large enough effect; inconclusive = small, poorly fitted or top-dose-only effect; inactive = no such curve, though single readings can be large or run the other way;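 also: % is scaled to controls: 0 for no effect and ±100 for the full control effect; nearly all actives have a fitted effect of over 50% in size; the assay follows cell death caused by Vpr and the record does not say whether a fall means rescue or toxicity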
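Fission yeast RE007 carrying one integrated HIV-1 vpr copy, seeded at OD 0.01 in PMG+AL medium with 23 nL pinned compound. Grown 24 h at 30 degrees; viability read by BacTiter-Glo luminescence after 5 min.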
Cruzain inh noDet: qHTS Assay for Promiscuous and Specific Inhibitors of Cruzain (without detergent); Cruzipain (Trypanosoma cruzi), P25779; purified cruzain, Z-FR-AMC fluorescence, no detergent; Potency, µM, inactives show max response, negative = inhibition, usual class: inhibitors; 200,000 compounds, 2.3% hits; active = well fitted curve in the direction sought with a large enough effect; inconclusive = small, poorly fitted or top-dose-only effect, or another doubt; inactive = no such curve, though single readings can be large; an effect the other way counts as inactive or inconclusive;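 also: plate controls were enzyme without inhibitor for no effect and buffer without enzyme for full effect; nearly all actives have a fitted effect of over 40% in size; top concentration of the series not given in the record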
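Detergent-free condition (0.00005% Triton X-100) in acetate buffer pH 5.5 with DTT. 1.5 nM enzyme and compound were pre-mixed 15 min, then 2 uM Z-FR-AMC substrate added; reaction progress from fluorescence change between first and third reads (60 s).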
NS1 function inh: qHTS Assay for Inhibitors of Influenza NS1 Protein Function; S. cerevisiae slowed by influenza A NS1, growth recovery by OD600; Potency, µM (doses to about 46.1 µM), without a hit: top-dose activity, positive = more growth; 270,000 compounds, 0.4% hits; also: actives are rising curves; nearly all actives have a fitted effect of over 50% in size
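A cell-based growth assay was used: compounds that relieve NS1-induced slow growth of budding yeast raise OD600. Assay medium was yeast nitrogen base with ammonium sulphate and -URA supplement, pH 6.0, with 2% galactose.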
LASV entry inh: qHTS for Inhibitors of binding or entry into cells for Lassa Virus | Lassa virus pseudotype entry inhibition, cell reporter; control for the full effect not named in the record | Potency, µM (titrated, usually from 37.9 µM), without a hit: at the highest dose activity change, negative = inhibition, actives largely listed as inhibitors | 300,000 compounds, 1.2% hits; active means well fitted inhibition curve with a large enough effect; inconclusive means small, poorly fitted or top-dose-only effect, or effect the other way; inactive means flat fitted curve, though single readings scatter; tested in HEK293 cells; also: % is scaled to controls: 0 for no effect and ±100 for the full control effect; nearly all actives have a fitted effect of over 50% in size; luciferase read-out
SARS PLpro yeast: qHTS of Yeast-based Assay for SARS-CoV PLP; S. cerevisiae expressing SARS-CoV PLpro, growth rescue; control for the full effect not named in the record; Potency, µM (series often up to 32.9 µM), without a hit: top-dose activity, positive = growth rescue; 330,000 compounds, 0.19% hits; also: 0% is about no effect; nearly all actives have a fitted effect of over 55% in size; growth read by luminescence after 48 h
Marburg entry inh: qHTS for inhibitors of binding or entry into cells for Marburg Virus | Marburg virus pseudotyped entry inhibition, cell reporter; control for the full effect not named in the record; about a third of the inactives were read at about 46 µM | Potency, µM (doses to about 37.8 µM), without a hit: at the top dose activity change, negative = inhibition, usual class: inhibitors | 300,000 compounds, 1.8% hits | AID 540276, 2011; active = well fitted inhibition curve with a large enough effect; inconclusive = small, poorly fitted or top-dose-only effect, or effect the other way; inactive = flat fitted curve, though single readings scatter; tested in HEK293 cells; about a fifth of its hits are not listed in these tables; also: % is scaled to controls: 0 for no effect and ±100 for the full control effect; luciferase read-out
2A StopGo: High Throughput Screening for Foot and Mouth Disease Virus Antivirals. AID 1159524, 2015. human cells with a luciferase reporter of 2A StopGo recoding; control for the full effect not named in the record. 410,000 compounds, 1.2% hits. Potency, µM (top dose mostly 57.9 µM), for inactives: at the top dose signal change, negative = less light; active = well fitted falling curve with a large enough effect; inconclusive = small, poorly fitted or top-dose-only effect; inactive = no such curve, though single readings can be large or run the other way; tested in HEK293T cells; also: % is scaled to controls: 0 for no effect and ±100 for the full control effect; nearly all actives have a fitted effect of over 45% in size; luciferase light after 4 h
* hit, by the source's call; ? = inconclusive; / = no result given; [ ] = dose if it differs, or a comment. Unless noted, calls follow the shape of the dose curve; as a rule, active means well fitted rising curve with a large enough effect; inconclusive means small, poorly fitted or top-dose-only effect; inactive means no such curve, though single readings can be large or run the other way. Potency is read from the fitted curve at half-maximal effect.

SMILES	Cruzain inh Det	RE007 growth inh	Cruzain inh noDet	NS1 function inh	LASV entry inh	SARS PLpro yeast	Marburg entry inh	2A StopGo
Cc1c(NC(=S)N/N=C/c2ccc([N+](=O)[O-])cc2O)c(=O)n(-c2ccccc2)n1C	/	12%	/	1%	/	19%	/	-22%
Cn1c(SCC(=O)CC(=O)Nc2ccccc2)nnc1-c1ccc(O)cc1	1.9%	6%	10%	?	0%	2%	7%	/
CCn1cc(C(=O)OCC(=O)Nc2ccccc2OC(F)F)c(=O)c2ccc(C)nc21	/	1%	/	/	27%[46.1 µM]	-17%	4%[46.1 µM]	-9%
COc1cccc(C(=O)NNC(=O)C(=O)Nc2ccc(OC)cc2OC)c1	/	8%	/	3%	0%[46.1 µM]	-4%	2%[46.1 µM]	18%
CCN(CC)CCCN(C(=O)c1ccc(F)cc1)c1nc(-c2ccc(OC)cc2)cs1	/	-7%	/	15%	?	3%	?	-11%
COc1ccc(N2CCN(/C(=N\S(=O)(=O)c3ccc(C)cc3)Nc3nc(C)cc(C)n3)CC2)cc1	1.2%	1%	21%	-2%	8.2µM*	-4%	-17%	23%
COc1cc(C)ccc1OCCCCNCc1ccccc1	/	-2%	/	?	/	-3%	/	5%
CCc1ccc(C(=O)NC(=S)Nc2ccc(N3CCOCC3)cc2)cc1	/	-2%	/	7%	/	0%	/	0%
COc1ccc(/C=N/NC(=O)c2ccc(F)cc2)cc1CN1CCc2cc(OC)c(OC)cc2C1C (centres undefined)	/	14%	/	/	-28%[46.1 µM]	2%	?	-2%
COc1cccc(/C=C/C(=O)OCC(=O)N2CCN(S(=O)(=O)c3ccc(Cl)cc3)CC2)c1	/	-19%	/	11%	?	4%	?	-16%
CCn1c(N)c(C(N)=O)sc1=S	-0.6%	3%	-19%	-32%	4%	30%	-3%	-3%
S=C(NCc1ccc(Cl)cc1)Nc1ccccc1	-6.2%	0%	-11%	?	12%	12%	3%[46.1 µM]	13%
CCC(=O)Nc1cc2c3c(c1)CCN3C(=O)CC2	/	-10%	/	3%	/	-6%	/	-16%
Cc1ccc(CSc2ncnc3ccccc23)cc1	/	-9%	/	-7%	26%[46.1 µM]	-1%	15%[46.1 µM]	1%
NC(=O)C1CCN(C(=O)c2ccc3c(=O)n(Cc4ccco4)c(SCC(=O)c4ccccc4)nc3c2)CC1	/	1%	/	/	1%	1%	?	84%[activator]

13 entries from above, with bars between the fields:
compound | Cruzain inh Det | RE007 growth inh | Cruzain inh noDet | NS1 function inh | LASV entry inh | SARS PLpro yeast | Marburg entry inh | 2A StopGo
CCn1cc(C(=O)OCC(=O)Nc2ccccc2OC(F)F)c(=O)c2ccc(C)nc21 | / | 1% | / | / | 27%[46.1 µM] | -17% | 4%[46.1 µM] | -9%
COc1cccc(C(=O)NNC(=O)C(=O)Nc2ccc(OC)cc2OC)c1 | / | 8% | / | 3% | 0%[46.1 µM] | -4% | 2%[46.1 µM] | 18%
CCN(CC)CCCN(C(=O)c1ccc(F)cc1)c1nc(-c2ccc(OC)cc2)cs1 | / | -7% | / | 15% | ? | 3% | ? | -11%
COc1ccc(N2CCN(/C(=N\S(=O)(=O)c3ccc(C)cc3)Nc3nc(C)cc(C)n3)CC2)cc1 | 1.2% | 1% | 21% | -2% | 8.2µM* | -4% | -17% | 23%
COc1cc(C)ccc1OCCCCNCc1ccccc1 | / | -2% | / | ? | / | -3% | / | 5%
CCc1ccc(C(=O)NC(=S)Nc2ccc(N3CCOCC3)cc2)cc1 | / | -2% | / | 7% | / | 0% | / | 0%
COc1ccc(/C=N/NC(=O)c2ccc(F)cc2)cc1CN1CCc2cc(OC)c(OC)cc2C1C (centres undefined) | / | 14% | / | / | -28%[46.1 µM] | 2% | ? | -2%
COc1cccc(/C=C/C(=O)OCC(=O)N2CCN(S(=O)(=O)c3ccc(Cl)cc3)CC2)c1 | / | -19% | / | 11% | ? | 4% | ? | -16%
CCn1c(N)c(C(N)=O)sc1=S | -0.6% | 3% | -19% | -32% | 4% | 30% | -3% | -3%
S=C(NCc1ccc(Cl)cc1)Nc1ccccc1 | -6.2% | 0% | -11% | ? | 12% | 12% | 3%[46.1 µM] | 13%
CCC(=O)Nc1cc2c3c(c1)CCN3C(=O)CC2 | / | -10% | / | 3% | / | -6% | / | -16%
Cc1ccc(CSc2ncnc3ccccc23)cc1 | / | -9% | / | -7% | 26%[46.1 µM] | -1% | 15%[46.1 µM] | 1%
NC(=O)C1CCN(C(=O)c2ccc3c(=O)n(Cc4ccco4)c(SCC(=O)c4ccccc4)nc3c2)CC1 | / | 1% | / | / | 1% | 1% | ? | 84%[activator]

Additional results.
SMILES	Cruzain inh Det	RE007 growth inh	Cruzain inh noDet	NS1 function inh	LASV entry inh	SARS PLpro yeast	Marburg entry inh	2A StopGo
COc1ccc(CN2CC(C(=O)NCCCN3CCCCCC3)CC2=O)cc1 (centres undefined)	5.8%	12%	-3%	-1%	-9%	8%	-2%	-11%
COc1ccccc1CNC(=O)[C@@H]1CCCN1S(=O)(=O)c1ccccc1F	/	-21%	/	3%	10%	0%	0%[46.1 µM]	-12%
COc1ccccc1N1CCN(C(=O)Cn2cnc3onc(-c4ccc(F)cc4)c3c2=O)CC1	-5.8%	/	?	/	-18%[46.1 µM]	/	/	-10%
CCOc1ccc(C(=O)CCN2CCOCC2)cc1	/	40µM*	/	5%	/	1%	/	31%[activator]
C=CCN=C(NC#N)SCC(=O)NC(C)(C)C	5.2%	11%	-6%	0%	2%	0%	-3%[46.1 µM]	-7%
O=C(N/N=C/c1cc(Br)ccc1O)c1cccc(N2CCCC2=O)c1	-4.7%	2%	4%	?	?	28%	23µM*	-22%
Cc1ccc(CSCCNC(=O)CN(c2cc(C)ccc2C)S(C)(=O)=O)cc1	/	-4%	/	-6%	?	0%	?	?
O=c1cc(N2CCCC2)[nH]c(=O)n1-c1ccc(Cl)cc1	0.2%	7%	3%	-3%	8%	8%	-2%	1%
O=C(O)C(Oc1ccc2c3c(c(=O)oc2c1)CCC3)c1ccccc1 (centres undefined)	-9.4%	0%	-4%	?	-5%	-3%	10%	-3%
COc1ccc(N(CC(=O)N/N=C/c2ccc3c(c2)OCO3)S(=O)(=O)c2ccc(NC(C)=O)cc2)cc1	/	-2%	/	/	?	2%	-28%	-23%
NC(=O)c1cc2ccccc2o/c1=N\NC(=O)c1ccco1	-4.0%	5%	7%	7%	13%	30%	6%	-20%
COc1ccc(NS(=O)(=O)c2ccc3c(c2)n(C)c(=O)n3C)cc1	3.5%	3%	2%	10%	?	8%	10%	/
Cc1ccc(C(=O)NN2CCOCC2)cc1	0.5%	11%	-3%	-5%	11%	-5%	?	7%
Cc1nn(-c2ccccc2)c2c1C(c1cccs1)C(C#N)=C(N)O2 (centres undefined)	-1.5%	13%	-18%	4%	22%	-11%	9%[46.1 µM]	-15%
CCCC1=[N+](CC)CCn2c(C)ccc21	-5.6%	6%	-3%	4%	-7%	3%	13%	/
O=C(Nc1ccncc1)c1cccs1	0.9%	?	0%	0%	-7%	11%	2%[46.1 µM]	-16%
O=C(CCCN1C(=O)/C(=C/c2cccs2)SC1=S)NNC(=O)c1cccnc1	/	-9%	/	5%	/	2%	/	2%
CC(C)c1noc2ncc(C(=O)c3cc(Cl)cc(Cl)c3O)cc12	-3.1%	-9%	-4%	-93%	-15%	3%	15%	-17%
O=C(NCC(=O)N1CCN(Cc2ccccc2)CC1)c1ccc(Cl)cc1	/	4%	/	12%	/	-3%	/	?
Cc1ccc(/C=C/c2onc(C)c2S(=O)(=O)N2CCC(C(=O)NCC(C)c3ccccc3)CC2)cc1 (centres undefined)	-1.7%	/	-3%	/	6%[46.1 µM]	/	/	-1%
O=C(CCCn1c(=O)c2cccn2c2cccnc21)NCc1cccc(Br)c1	/	16%	/	-4%	/	3%	/	-1%
Cc1cc(C)cc(N(CC(=O)NC2CCC(C)CC2)S(=O)(=O)c2c(C)noc2C)c1 (centres undefined)	1.0%	3%	5%	-2%	/	-1%	-3%	-11%
Cc1cc(N)n(-c2ccc(Oc3ccccc3)c(S(=O)(=O)O)c2)n1	/	-24%	/	/	-10%[46.1 µM]	-1%	0%[46.1 µM]	11%
Cc1ccc(C(=O)N2CCN(C)CC2)cc1S(=O)(=O)N1CCCCC1	6.3%	-17%	0%	-1%	-22%	6%	-10%	0%
CCOc1ccc(CCNC(=O)c2ccc3c(c2)N(Cc2ccc(F)cc2)CCS3)cc1	-0.9%	/	-12%	/	-2%[46.1 µM]	/	0%[46.1 µM]	-8%
CCOC(=O)/C(C)=C1\NC(C)(C)Cc2ccccc21	-4.5%	0%	-10%	-4%	5%	0%	7%	-19%
O=C(O)CCC(=O)N(Cc1cccs1)Cc1cccs1	5.6%	-1%[3.69 µM]	3%	-12%	12%	5%	-13%	-26%
O=S(=O)(c1ccc(Cl)cc1)n1ccc2cccnc21	-0.2%	-4%	-6%	-3%	16%	1%	-9%	-1%
Cc1ccc(C)c(NS(=O)(=O)c2ccc3[nH]c(=O)[nH]c3c2)c1	/	1%	/	2%	/	2%	/	-1%
N#CCCC(CCC#N)C1=NCCc2ccccc21	/	-13%	/	0%	/	1%	/	-11%
COc1ccc(NC(=O)N2CCC(O)(c3cccnc3)CC2)c(OC)c1	7.3%	-4%	-6%	-2%	-1%	?	-29%[46.1 µM]	-21%
O=C(COC(=O)c1ccccn1)Nc1nc(-c2ccccc2)cs1	/	-16%	/	-77%	-6%[46.1 µM]	-8%	?	32%[activator]
Cc1nc(COc2cc3oc(=O)cc(C)c3cc2Cl)cs1	/	-2%	/	-16%	-13%[46.1 µM]	-1%	?	-16%
